GIV Gai3 FP = blocks GIV peptide binding to rat Galpha-i3. Galpha-i3/FITC-GIV peptide fluorescence polarization, 90 min; active compounds read low; scaled: aluminum fluoride 0%, vehicle 100%. percent of control (FP), % (no concentration beside the values). 210,000 tested, 0.42% active. AID 1224905;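 active means replicate mean at 85% of control or lower, very high polarization wells dropped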;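 further: wells of about 15 µL received 100 nL stock; the first replicate is given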
Target sequence (P08753 whole entry, looked up): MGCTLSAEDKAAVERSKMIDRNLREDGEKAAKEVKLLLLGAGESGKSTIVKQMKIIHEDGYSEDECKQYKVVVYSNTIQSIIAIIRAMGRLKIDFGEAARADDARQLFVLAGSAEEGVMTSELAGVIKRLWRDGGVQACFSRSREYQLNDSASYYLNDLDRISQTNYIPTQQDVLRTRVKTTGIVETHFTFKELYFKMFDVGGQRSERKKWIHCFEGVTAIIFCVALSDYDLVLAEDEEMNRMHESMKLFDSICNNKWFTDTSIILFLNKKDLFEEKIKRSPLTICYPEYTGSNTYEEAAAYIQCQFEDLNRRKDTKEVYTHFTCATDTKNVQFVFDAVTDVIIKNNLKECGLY
Sa growth inh = blocks Staphylococcus aureus growth | S. aureus RN4220 growth, OD600, 20 h, 42 °C; active compounds read low | relative growth, % (concentration not given with the values) | 170,000 tested, 0.53% active | AID 720641;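 active means growth at 42 °C up to 50% and 20 or more points under that at 30 °C, or under 10% at both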;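 further: 300 nL library stock went into each well; scaled to the means of positive and negative controls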
Sa growth inh second temp = also measured in Sa growth inh; calls as there; relative growth, %; measured here: growth at 30 °C;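 optical density after 20 h as mean of two plates; 100% = untreated growth and lower means inhibition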
* hit, by the source's call; . = not tested or not shown. The list is partial. The share of hits here may be higher or lower than overall.

SMILES	GIV Gai3 FP	Sa growth inh	Sa growth inh second temp
C[C@@H]1O[C@@H](OC[C@H]2O[C@@H](Oc3c(-c4ccc(O)c(O)c4)oc4cc(O)cc(O)c4c3=O)[C@H](O)[C@@H](O)[C@@H]2O)[C@H](O)[C@H](O)[C@H]1O	.	99.5	88.3
CN(C)S(=O)(=O)c1ccc(C(=O)NC2=N/C(=C(/C#N)C(=O)N3CCCCC3)c3ccccc32)cc1	.	103.0	95.2
CC1CNC(=O)NC1=O (configuration not stated)	.	97.4	96.8
Cc1nsc(N)c1C(=O)OCc1c(F)cccc1Cl	.	105.6	94.5
CCn1cc(C(=O)N2CCCc3ccccc32)c(=O)c2ccc(C)nc21	.	85.5	89.1
CN1C(=O)CS/C1=C\C#N	.	95.3	99.5
CCC(CC)C1C(C#N)=C(N)SC(N)=C1C#N	.	67.0	71.6
CC(c1n[nH]c(=S)n1-c1ccccc1)N(C)C (configuration not stated)	.	90.8	91.7
CCOC(=O)C1=C(C)NC(SCC(N)=O)=C(C#N)C1C1CC=CCC1 (configuration not stated)	.	103.8	89.9
N#Cc1ccc(Br)cc1	.	86.7	89.2
CC[C@]1(O)CC2CN(CCc3c([nH]c4ccccc34)[C@@](C(=O)OC)(c3cc4c(cc3OC)N(C)[C@H]3[C@@](O)(C(N)=O)[C@H](O)[C@]5(CC)C=CCN6CC[C@]43[C@@H]65)C2)C1 (some centres not stated)	.	98.0	79.5
CC(=O)[C@@]1(O)CC[C@H]2[C@@H]3C[C@H](C)C4=CC(=O)CC[C@]4(C)[C@H]3CC[C@@]21C	.	94.0	92.2
O=C1NC2=C(C(=O)OC2)C(c2ccc(O)cc2)N1 (configuration not stated)	.	92.5	89.0
CCN(CC)C(=O)COc1cccc2ccccc12	.	97.7	85.7
CC(C)(C)NC(=O)[C@@H]1CN(Cc2cccnc2)CCN1C[C@@H](O)C[C@@H](Cc1ccccc1)C(=O)N[C@H]1c2ccccc2C[C@H]1O	.	104.0	102.0
O=C(NC1CCCCC1)Sc1ccc(Cl)cc1	.	77.9	45.3
C=CCn1c(COc2ccc(CC)cc2)nnc1SC(C)C	.	93.9	86.9
CO[C@H]1C=CO[C@@]2(C)Oc3c(C)c(O)c4c(O)c(c5c(nc6cc(C)ccn65)c4c3C2=O)NC(=O)C(C)=CC=C[C@H](C)[C@H](O)[C@@H](C)[C@@H](O)[C@@H](C)[C@H](OC(C)=O)[C@@H]1C	.	82.5	67.4
COc1ccc(CN(C)C(=O)c2ccc(C)cc2O)c(OC)c1	.	118.1	96.6
NC(=O)c1cn(-c2ccccc2)nc1N	.	104.9	92.5
CN=C(N=c1ccc(Br)cn1C(=NC)c1cccs1)c1cccs1	.	108.7	96.8
CC(C)(C)C(O)/C=C/c1ccc2c(c1)OCO2 (configuration not stated)	.	88.4	84.2
CCOc1ccc(C(=O)Nc2ccc(S(=O)(=O)N(C)C)cc2)cc1OCC	.	82.6	90.8
CC(C)c1nc(CN(C)C(=O)N[C@H](C(=O)N[C@@H](Cc2ccccc2)C[C@H](O)[C@H](Cc2ccccc2)NC(=O)OCc2cncs2)C(C)C)cs1	.	94.7	78.4
O=C(O[C@H]1[C@H](Oc2ccccc2COC(=O)C2(O)C=CCCC2=O)O[C@H](CO)[C@@H](O)[C@@H]1O)c1ccccc1 (some centres not stated)	.	88.7	85.0

A different layout for some results above.
structure | GIV Gai3 FP | Sa growth inh | Sa growth inh second temp
CCOc1ccc(C(=O)Nc2ccc(S(=O)(=O)N(C)C)cc2)cc1OCC | . | 82.6 | 90.8
NC(=O)c1cn(-c2ccccc2)nc1N | . | 104.9 | 92.5
CC(C)(C)C(O)/C=C/c1ccc2c(c1)OCO2 (configuration not stated) | . | 88.4 | 84.2
Cc1nsc(N)c1C(=O)OCc1c(F)cccc1Cl | . | 105.6 | 94.5
O=C(NC1CCCCC1)Sc1ccc(Cl)cc1 | . | 77.9 | 45.3
CCC(CC)C1C(C#N)=C(N)SC(N)=C1C#N | . | 67.0 | 71.6

Complete entries as entered above:
Record of `CCC(CC)C1C(C#N)=C(N)SC(N)=C1C#N` → GIV Gai3 FP: .; Sa growth inh: 67.0; Sa growth inh second temp: 71.6
Record of `CC(C)(C)NC(=O)[C@@H]1CN(Cc2cccnc2)CCN1C[C@@H](O)C[C@@H](Cc1ccccc1)C(=O)N[C@H]1c2ccccc2C[C@H]1O` → GIV Gai3 FP: .; Sa growth inh: 104.0; Sa growth inh second temp: 102.0

New compounds follow
SMILES	GIV Gai3 FP	Sa growth inh	Sa growth inh second temp
O=C(O)c1cc2c(s1)-c1ccccc1CC2	.	91.2	96.0
O=C1CC[C@@H](C(=O)N2CSC[C@H]2C(=O)O)N1	.	95.8	93.4
C=C/C=C1/OCO/C1=C/CC(=O)N=c1c(C#N)cc2c(=O)n3cccc(C)c3nc2n1CCCCC	.	83.5	88.7
CN1CC(=O)N2[C@H](c3ccc4c(c3)OCO4)c3[nH]c4ccccc4c3C[C@@H]2C1=O	.	95.6	84.7
CCN(CC)Cc1ccc(C(=O)OC)o1	.	97.4	87.0
OC[C@H]1O[C@@H](Oc2cc(O)cc(/C=C/c3ccc(O)cc3)c2)[C@H](O)[C@@H](O)[C@@H]1O	.	102.2	86.6
COc1ccc(S(=O)(=O)Nc2ccc(-c3csc(C)n3)cc2)cc1	.	123.3	101.2
CCCN1CCCC[C@H]1C(=O)Nc1c(C)cccc1C	.	86.0	87.4
CC[C@H]1OC(=O)[C@H](C)C(=O)[C@H](C)[C@@H](O[C@@H]2O[C@H](C)C[C@H](N(C)C)[C@H]2O)[C@](C)(OC)C[C@@H](C)C(=O)[C@H](C)[C@@H]2N(CCCCn3cnc(-c4cccnc4)c3)C(=O)O[C@@]21C	.	93.3	72.4
O=C1[C@H]2CCCC[C@H]2C(=O)N1CCCCN1CCN(c2nsc3ccccc23)CC1	.	95.6	90.1
CCCCn1c(=NC(C)=O)c(C#N)cc2c(=O)n3cccc(C)c3nc21	.	89.9	91.6
CC(c1n[nH]c(=S)n1Cc1ccccc1)N(C)C (configuration not stated)	.	80.7	88.4
Cc1cc(NC(=O)Cc2c(C(=O)O)nnn2-c2ccc(Br)cc2)no1	.	78.8	93.3
O=C(C1CSC2(c3ccc(F)cc3)CCC(=O)N12)N1CCCCCC1 (configuration not stated)	.	100.0	94.7
CC(NC(=O)Nc1ccccc1)C(=O)O (configuration not stated)	.	82.8	94.3
Nc1nc(CN2CCCC2c2ccc3c(c2)OCCCO3)nc(Nc2ccccc2)n1 (configuration not stated)	.	107.2	100.4
CC12CCC(C(=O)N3CCCCCC3)(OC1=O)C2(C)C (configuration not stated)	102.6	.	.
Cc1cccc(C(=O)N2CCN(Cc3noc4ccccc34)CC2)c1	104.0	.	.
O=C(CCc1nc2ccccc2c(=O)n1CCC(=O)N1CCN(c2ccccc2)CC1)N1CCCCCC1	106.8	.	.
CCN(CC)c1ccc(C2C(C#N)=C(N)N(c3cccc([N+](=O)[O-])c3)C3=C2C(=O)CCC3)cc1 (configuration not stated)	113.1	.	.
CCOC(=O)c1c(NC(=O)C(C)Sc2nnc(CNC(=O)c3cccc(OC)c3)n2C)sc2c1CCCCC2 (configuration not stated)	108.6	.	.
Cc1nc(-c2cc(S(=O)(=O)NC3CCCCC3)c(C)s2)sc1C	99.5	.	.
C=CCn1c(=O)c2cnc(-c3ccc(Cl)cc3)nc2n(C)c1=O	102.8	.	.
O=C1C2ON(c3ccccc3)C(c3ccccc3)C2C(=O)N1Cc1ccccc1 (configuration not stated)	109.4	.	.
O=C1/C(=C/c2ccc(-c3cc(Cl)ccc3Cl)o2)C=C(c2ccccc2)N1c1cccc(Br)c1	117.1	.	.
SMILES	GIV Gai3 FP	Sa growth inh	Sa growth inh second temp
Cc1ccc(-c2noc(-c3ccccc3S(=O)(=O)N3CC=C(c4ccccc4)CC3)n2)cc1	101.3	.	.
O=C(Nc1cccc(Cl)c1)N1CCN(C(=O)c2nsc3ccccc23)CC1	104.0	.	.
CCOC(=O)C1=C(C)NC(=O)NC1c1cn(-c2ccccc2)nc1-c1cccs1 (configuration not stated)	108.1	.	.
CCC1C(=O)N=C(SCC(=O)Nc2nc(-c3ccccc3)cs2)NC1=O (configuration not stated)	111.3	.	.
CCc1nnc(-c2coc(S(=O)(=O)N3CCC(N4CCCCC4)CC3)c2)o1	103.2	.	.
COc1ccc(CCNc2ncnc3c2cnn3-c2ccc(Cl)cc2)cc1OC	119.8	.	.
COc1ccccc1N=c1oc2ccc(Br)cc2cc1-c1nc(-c2ccc(Cl)cc2)cs1	108.4	.	.
O=C(NCc1ccc(Br)cc1)c1ccc(-c2nccc(Oc3ccccc3)n2)cc1	106.7	.	.
c1ccc(CCc2nc(-c3ccc(-c4csc(C5CC5)n4)cc3)no2)cc1	97.7	.	.
COC(=O)C1C(=O)NC(SCC(=O)Nc2ccc(C)c(Cl)c2)=C(C#N)C1c1cc(OC)c(OC)c(OC)c1 (configuration not stated)	108.9	.	.
NC(=O)C1(C(N)=O)Sc2sc(=S)sc2S1	108.7	.	.
COc1ccc(C2Oc3ccc(Cl)cc3C3CC(c4cccs4)=NN32)c(OC)c1OC (configuration not stated)	113.7	.	.
COc1ccccc1-c1cc(C(F)(F)F)n2ncc(C(=O)N3CCCC3c3cc(C)on3)c2n1 (configuration not stated)	100.3	.	.
COc1ccc(-c2cc(C(=O)Nc3ccc(OC)cc3OC)c3ccccc3n2)cc1	102.8	.	.
COc1cc(C(=O)C2CC(=O)Nc3n[nH]c(-c4ccc(Cl)cc4)c32)ccc1F (configuration not stated)	97.9	.	.
CCC(=O)N1CCc2cc(Br)c(S(=O)(=O)NCCCN3CCc4ccccc4C3)cc21	106.6	.	.
O=C(CSc1nc(N2CCc3ccccc3C2)nc2ccccc12)Nc1ccc2c(c1)OCO2	106.0	.	.
Cc1c(C(=O)N2CCC(C(N)=O)(N3CCCCC3)CC2)sc2ncnc(N3CCN(c4ccccc4)CC3)c12	104.9	.	.
Cc1cc(C)cc(NC(=O)Cn2cc(-c3nc(-c4cccc(F)c4)no3)c(=O)c3ccc(C)nc32)c1	112.0	.	.
Clc1ccc(Cn2c3ccccc3c3nc4ccccc4nc32)c(Cl)c1	105.7	.	.
COc1ccc(CNC2=NCCNC23CCOCC3)cc1	104.1	.	.
c1cc2c(cc1-c1noc(C3CCC3)n1)ncn2CCN1CCCC1	106.1	.	.
O=C(OCCCN=C1NS(=O)(=O)c2ccccc21)C1CC(=O)N(c2ccccc2)C1 (configuration not stated)	114.7	.	.
Cc1c(C(=O)NCc2ccc(Cl)cc2)sc2ncnc(N3CCOCC3)c12	108.6	.	.
CC(C)c1cc(C2CCCN2C(=O)C2CC2)no1 (configuration not stated)	101.7	.	.
SMILES	GIV Gai3 FP	Sa growth inh	Sa growth inh second temp
O=C1CCc2cc(S(=O)(=O)NCc3ccc(Cl)cc3)cc3c2N1CCC3	104.6	.	.
N#CC1(C#N)[C@H](c2cccnc2)[C@@H](C(=O)c2ccccc2)N2c3ccc(Cl)cc3C=C[C@@H]21	113.2	.	.
COc1ccc(-n2ncc3c(Nc4ccc(Cl)c(Cl)c4)ncnc32)cc1	102.4	.	.
Cc1csc(-c2cc(S(=O)(=O)NC(C)C)cn2CC(=O)N2CCCCC2)n1	101.3	.	.
C=CCN(C(=O)CSc1nc2[nH]ncc2c(=O)n1-c1ccc(Cl)cc1)c1ccccc1	105.9	.	.
O=C(CCC(=O)N1CCN(C(c2ccccc2)c2ccccc2)CC1)Nc1noc2ccccc12	94.9	.	.
COc1cc(C(=O)N2c3ccccc3NC3=C(C(=O)CC(C)(C)C3)C2c2ccc(N(C)C)cc2)cc(OC)c1OC (configuration not stated)	112.2	.	.
